Screening results as filed in PubChem.
TRPML1 agonist: qHTS for Agonists of the Human Mucolipin Transient Receptor Potential 1 (TRPML1) | activation, % (no concentration beside the values) | TRPML1-expressing cells, Ca2+ dye fluorescence, FDSS; host cell line not named in the record; reference of the full effect not given here | 0.12% of 410,000 active | AID 624414, 2012 | Mucolipin-1 (Homo sapiens), Q9GZU1; in the data active = activation above about 50%; inconclusive = about 30% to 50%; inactive = below about 30%; also: 0% is about no effect; the text of the record puts the active cut at 80%
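In this qHTS format, compounds were pin-transferred onto Ca8-dye-loaded TRPML1-DL cells induced with Tet overnight, and intracellular Ca2+ fluorescence was recorded kinetically for 110 s after a 10 s baseline. A subsequent 4uM final 54-4 (EC80) addition followed by a second 110 s read served as the antagonist phase.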
Menin MLL FP FL: qHTS Assay for Inhibitors Targeting the Menin-MLL Interaction in MLL Related Leukemias: Competition With Fluorescein Labeled MLL-derived Peptide | Fluorescence polarization, fluorescein-MLL peptide displacement from menin | FP activity change, % at 61.4 µM | 290,000 tested, under 10 active | AID 1766, 2009; inconclusive = falling polarisation curve, or a change in total fluorescence; inactive = total fluorescence flat and polarisation flat or rising; no compound was filed as active; the % refers to the polarisation; negative = inhibition;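 also: % of control where 0% means no effect; inhibitors lower the polarisation; unlabelled MLL peptide was the positive control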
TRPML1 inh: qHTS for Inhibitors of the Human Mucolipin Transient Receptor Potential 1 (TRPML1); Mucolipin-1 (Homo sapiens), Q9GZU1; 0.02% of 390,000 active; TRPML1-inducible cells, Ca2+ dye fluorescence, FDSS; hits give low values; inhibition of EC80 agonist-evoked calcium signal; activity change, negative = inhibition, % (test concentration not listed); in the data active means activity change below about -50%; inconclusive means about -30% to -50%; inactive means above about -30%;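 also: stimulus is agonist 54-4 at its EC80 concentration; % is scaled to controls: 0 for no effect and ±100 for the full control effect; compound concentration not given in the record; the text of the record puts the active cut at -80%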
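TRPML1-DL cells, Tet-induced overnight (~16 h, 37 °C) at 1,500 cells/well, were loaded with Ca8 no-wash dye plus quencher for 45-90 min at room temperature. Compounds were pinned during FDSS kinetic reading; agonist 54-4 at EC80 (4 uM final) then added.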
PINK1 expr mod: A Quantitative High throughput Screen to Identify Chemical Modulators of PINK1 Expression; PINK1 immunofluorescence, high-content cytometry, 24 h; Potency, µM (series often up to 76.6 µM), for the others: at the top dose activation (PINK1 increase), hits mostly activators; 0.2% of 410,000 active; AID 624263, 2012; active = well fitted activation curve with a large enough effect; inconclusive = small, poorly fitted or top-dose-only effect; inactive = flat fitted curve, though single readings scatter; cell line not stated here;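 also: potency is read from the fitted curve at half-maximal effect; % of control where 0% means no effect; nearly all actives have a fitted effect of over 65% in size; a mitochondrial uncoupler was the plate control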
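Stable cell line, 250 cells/well, 12 h attachment; compounds pinned at 5 concentrations, 24 h; CCCP control. Fixed with nuclear dye, primary antibodies 12 h at 10 degrees C, secondary plus cell stain; laser-scanning cytometer read.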
Sfp PPTase inh: qHTS Assay for Inhibitors of Bacillus subtilis Sfp phosphopantetheinyl transferase (PPTase); Biochemical Sfp PPTase activity, qHTS; 3.5% of 310,000 active; 4'-phosphopantetheinyl transferase ffp (Bacillus subtilis), Q9F4F7; Potency, µM, inactives show max response, negative = inhibition, most hits filed as inhibitors; active = well fitted inhibition curve with a large enough effect; inconclusive = small, poorly fitted or top-dose-only effect, or another doubt; inactive = no such curve, though single readings can be large or run the other way;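 also: the enzyme is Sfp with the accession as filed and its product quenches rhodamine fluorescence; potency is read from the fitted curve at half-maximal effect; 0% = enzyme reaction without inhibitor and -100% = no enzyme wells; top concentration of the series not given in the record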
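Compounds were incubated with enzyme (final 15 nM) for 15 min at room temperature before substrate addition started the reaction. Fluorescence at 525 nm excitation, 598 nm emission was recorded immediately and after 30 minutes.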
ClpP mod: qHTS Assay for Activators of ClpP. ATP-dependent Clp protease proteolytic subunit (Bacillus subtilis (strain 168)), P80244. purified B. subtilis ClpP, FRET peptide cleavage, 20 min. Potency, µM (highest dose often 57.5 µM), without a hit: top-dose activity change, negative = active. 1.9% of 340,000 active; active = well fitted falling curve with a large enough effect; inconclusive = small, poorly fitted or top-dose-only effect; inactive = no such curve, though single readings can be large or run the other way; also: potency is read from the fitted curve at half-maximal effect; the source files actives as falling curves though it sought activators and does not explain the sign; nearly all actives have a fitted effect of over 65% in size; many hits overshoot -100%
Target sequence (P80244 whole entry, looked up): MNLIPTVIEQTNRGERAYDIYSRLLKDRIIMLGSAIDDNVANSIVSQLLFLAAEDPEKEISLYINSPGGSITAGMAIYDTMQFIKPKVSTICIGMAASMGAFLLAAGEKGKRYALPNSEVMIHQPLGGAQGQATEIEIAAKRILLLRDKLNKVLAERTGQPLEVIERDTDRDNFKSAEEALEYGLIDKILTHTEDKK
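Buffer: 100 mM Tris/HCl pH8, 100 mM KCl, 0.05% low protease BSA, 2.5% glycerol, 0.01% Tween-20. ClpP 10 microg/mL final; 20 min RT; delta FRET normalized to ADEP and DMSO controls.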
TRPV1 PAM: HTS Assay for Compounds that Act as Potentiators of the Vanilloid Receptor 1. Transient receptor potential cation channel subfamily V member 1 (Homo sapiens), Q8NER1. TRPV1-expressing cells, Fluo-8 calcium influx, capsaicin EC20 potentiation; host cell line not named in the record; control for the full effect not named in the record. potentiation, % at 8.33 µM. 0.02% of 320,000 active. AID 540277, 2011; active means potentiation above 80%; inconclusive means 30% to 80%; inactive means below 30%; also: 0% is about no effect
Target sequence (Q8NER1 whole entry, looked up): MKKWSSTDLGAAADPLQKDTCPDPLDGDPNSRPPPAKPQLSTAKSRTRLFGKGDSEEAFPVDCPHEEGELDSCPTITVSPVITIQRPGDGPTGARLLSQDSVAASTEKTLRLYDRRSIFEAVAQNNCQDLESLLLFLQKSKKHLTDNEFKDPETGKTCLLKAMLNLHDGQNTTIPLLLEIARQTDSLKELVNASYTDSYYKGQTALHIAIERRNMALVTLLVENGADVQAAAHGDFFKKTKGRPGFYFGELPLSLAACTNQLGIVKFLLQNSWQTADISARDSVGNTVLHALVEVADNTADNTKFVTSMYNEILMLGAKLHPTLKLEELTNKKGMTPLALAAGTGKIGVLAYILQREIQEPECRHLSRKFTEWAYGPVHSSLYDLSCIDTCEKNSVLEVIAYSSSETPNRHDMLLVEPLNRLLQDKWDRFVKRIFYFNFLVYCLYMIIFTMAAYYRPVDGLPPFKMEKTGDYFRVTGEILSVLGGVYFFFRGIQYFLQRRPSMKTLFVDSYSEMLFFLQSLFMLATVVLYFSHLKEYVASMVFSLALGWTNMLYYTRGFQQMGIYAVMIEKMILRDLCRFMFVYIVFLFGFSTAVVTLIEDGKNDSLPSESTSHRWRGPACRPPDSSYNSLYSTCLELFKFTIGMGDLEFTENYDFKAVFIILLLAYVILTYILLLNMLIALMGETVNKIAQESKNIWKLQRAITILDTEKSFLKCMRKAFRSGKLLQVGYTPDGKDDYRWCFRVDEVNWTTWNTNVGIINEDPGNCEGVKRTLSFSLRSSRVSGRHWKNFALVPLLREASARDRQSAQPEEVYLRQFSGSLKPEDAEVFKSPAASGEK
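Fluo-8 calcium influx in TRPV1-expressing cells, kinetic read (ex 480/em 520 nm). Compound added and read 3 min for agonist activity, followed by capsaicin at EC20 final and 2 min further read for enhancement.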
The depositor's hits bear a star; u = inconclusive; x = not tested or not shown; & = joins results of further samples; [ ] = dose if it differs, or a comment.

SMILES	TRPML1 agonist	Menin MLL FP FL	TRPML1 inh	PINK1 expr mod	Sfp PPTase inh	ClpP mod	TRPV1 PAM
CC(C)CN(CC(C)C)c1ccc(C=C2C(=O)NC(=S)NC2=O)cc1[N+](=O)[O-]	-0.2	0.6	20	u	20µM*	3.0%	-3
O=C(O)c1[nH]c(=O)[nH]c(=O)c1F	0.6	-6.3	4	-2.2%	u	x	-22
COc1ccc(OCC(=O)N2CCN(CCc3ccccn3)CC2)cc1	-0.1	x	25	1.4%	x	1.2%	x
CSc1ccccc1C(=O)C1CCCN(Cc2ccn[nH]2)C1 (stereo not drawn)	0.3	-0.5	-14	0.2%	5%	0.9%	10
COc1ccc(N2C(=O)NC(=O)/C(=C/c3ccc(N4CCOCC4)cc3)C2=O)cc1	x	u	x	x	50µM*	x	5
CCOC(=O)c1c(N)n(CCCOC(=O)c2ccco2)c2nc3ccccc3nc12	-0.7	1.6	-1	-2.1%	7%	u	1
COc1ccccc1OCC(=O)Nc1ccc(Cl)cc1C(=O)c1ccccc1	1.2	1.3	5	3.9%[38.3 µM]	2%	0.6%	-2
Cc1nn(CCC#N)c2c1P(=S)(N1CCCC1)OC(c1ccc(F)cc1)=N2 (stereo not drawn)	0.3	5.3	4	-0.1%[38.3 µM]	10µM*	1.2%	-5
O=C(N/N=C/c1c(O)n(-c2ccccc2)c(=S)[nH]c1=O)c1ccccc1	1.1	11	0	1.6%	19%	x	-22
CCC1(c2ccc(-c3ccccc3)cc2)C(=O)NC(=O)NC1=O	2.5	0.1	-5	-0.2%	-2%	1.6%	-4
Cc1nn(-c2ccccc2)c(Cl)c1C1C(C#N)=C(N)Oc2c1c(=O)oc1ccccc21 (stereo not drawn)	-0.2	0.0	18	1.2%	11%	20%	-3
C[C@]12CCC3C(CC[C@H]4C[C@@H](O)CC[C@]34C)[C@H]1CC[C@H]2O (stereo partly drawn)	-0.7	x	-4	0.4%	x	x	x
CCOC(=O)C(O)(c1ccc(NC(=O)c2ccco2)c(OC)c1)C(F)(F)F (stereo not drawn)	1.2	2.2	10	2.2%	4%	1.3%	-7
COC1C(C)OC(OC2CC(C)(O)Cc3cc4c(c(O)c32)C(=O)c2c(O)cc3c(c2C4=O)OC2OC3(C)C(O)C(N(C)C)C2O)C(OC)C1(C)OC (stereo not drawn)	7.9	x	-13	-6.5%	x	-8.6%	x
COC(=O)C1=C(c2ccc(C(C)=O)cc2)C[C@@H]2CC[C@H]1N2C(=O)NC1Cc2ccccc2C1	0.2	x	-4	-0.9%	x	0.4%	-8
CCn1cc(C(=O)N2CCCCC2)c2ccccc21	0.4	0.4	-6	0.0%	u	0.1%	-5
CCOCCCNC(=O)C1c2cc(OC)c(OC)cc2C(=O)N2CCCCC12 (stereo not drawn)	1.8	3.2	18	3.3%	18%	u	3
Cc1ccccc1-n1nc(C)c2c1NC(=O)CSC2c1ccc(Cl)cc1 (stereo not drawn)	2.4	x	-17	3.4%	x	-1.3%	x
Cn1c(=O)c2c(nc(N/N=C/c3c(O)n(-c4ccccc4)c(=S)[nH]c3=O)n2C)n(C)c1=O	0.3	-0.1	-11	-1.9%	79µM*	2.9%	-9
CCNC(=O)NC(=O)C(C)OC(=O)c1c(C)nn(Cc2ccccc2)c1Cl (stereo not drawn)	-1.3	2.3	-13	-1.2%	9%	-0.7%	0
Oc1ccc2c3c1OC1c4[nH]c5ccccc5c4C[C@@]4(O)C(C2)N(CC2CC2)CC[C@]314 (stereo partly drawn)	0.1	x	-13	2.2%	x	-1.0%	x
CCCCC(CC)COCCCN=Cc1c(O)[nH]c(=S)[nH]c1=O (stereo not drawn)	2.2	6.1	-6	0.3%	u	3.0%	3
C[C@]12CCC3C(CCC4=C/C(=N/OCC(=O)NC(CCC(N)=O)C(=O)O)CC[C@@]43C)C1CCC2O (stereo partly drawn)	-0.5	7.9	2	0.0%	13%	2.1%	-16
Cc1cc(/C=C2/C(=O)NC(=O)N(Cc3ccco3)C2=O)c(C)n1-c1ccccc1O	1.4	u	-1	0.4%	6%	0.7%	3
C[C@]12CC[C@@H]3c4ccc(O[C@@H]5O[C@H](C(=O)O)[C@@H](O)[C@H](O)[C@H]5O)cc4CC[C@H]3[C@@H]1C[C@@H](O)[C@@H]2O	0.0	-0.3	-1	2.7%	79µM*	0.6%	4
(cont.)
SMILES	TRPML1 agonist	Menin MLL FP FL	TRPML1 inh	PINK1 expr mod	Sfp PPTase inh	ClpP mod	TRPV1 PAM
COc1cc2c(cc1OC)C13CCN4CC5=CCOC6CC(=O)N2C1C6C5CC43 (stereo not drawn) (tested in a mixture with another compound)	0.0	-0.5	-7	0.1%	9%	-4.5%	-3
CN1CC[C@@]2(C)c3cc(O)ccc3N(C)C2O1 (stereo partly drawn)	x	u	x	-0.2%	-28%	x	x
COc1ccc(OC(=O)N(C)C[C@H]2OCc3cnnn3CCCC(=O)N([C@H](C)CO)C[C@@H]2C)cc1	-0.2	x	-5	3.3%	x	0.4%	x
CC(=O)c1c(O)n(-c2cccc(Cl)c2)c(=O)[nH]c1=O (tested in a mixture with another compound)	0.3	u	-11	1.8%	-7%	-1.4%	8
CCCNC(=O)c1cnn2c(C)c(Cc3c(C)cc(C)cc3C)c(C)nc12	0.9	x	33	0.4%	x	10µM*	x
CCN1C(=O)CC(c2cccnc2)=Nc2ccccc21	0.6	2.7	-15	0.9%	4%	1.4%	0
C[C@]12CCC(=O)C=C1C=CC1C2CC[C@@]2(C)C1CC[C@@H]2O (stereo partly drawn)	-0.4	x	4	-0.2%	x	x	x
CCN1CCN(c2cc(=O)n3ccccc3n2)CC1	-0.2	1.1	9	2.1%	16%	x	-17
COC(=O)C1=C(c2cc3ccccc3s2)C[C@@H]2CC[C@H]1N2C(=O)N1CCC(C)CC1	1.9	x	3	u	x	-2.2%	x
COc1ccc(OCC(=O)N2CCN(Cc3cccc(OC)c3OC)CC2)cc1	-1.1	x	-12	0.4%	x	0.2%	x
Cn1c(O)c(C(=Nc2ccccc2)SCc2ccc(Cl)cc2)c(=O)n(C)c1=O	1.1	u	27	2.5%	45µM*	-5.0%	-12
CCCCCP(=O)(O)c1ccccc1	-0.1	1.0	-5	u	10%	-1.2%	16
CNC(=O)OCCc1nccn1C	0.3	3.3	-19	3.3%	2%	1.3%	-9
COc1cc(C(c2c(O)c3ccccc3oc2=O)c2c(C)n(C)n(-c3ccccc3)c2=O)ccc1O (stereo not drawn)	-0.6&0.6	0.9	-3&-9	-0.3%&0.8%	u	-2.8%&-1.8%	u
O=C1CC(=O)N(c2ccccc2F)C(=O)N1	0.2	u	3	-0.3%	u	-3.9%	-7
CCN1CCN(Cc2cccc(Oc3ccccc3)c2)CC1	-0.1	3.3	26	0.4%[38.3 µM]	u	-1.1%	12
O=c1c2ccccc2nc(-c2ccc(Cl)cc2Cl)n1-c1nccs1	3.5	3.5	10	5.6%	5%	-3.1%	3
CCCc1nnc(NC(=O)CCC(=O)N2CCN(CCOC(c3ccccc3)c3ccccc3)CC2)s1	0.9	2.2	18	2.6%	7%	-1.1%	0
Cc1ccc(S(=O)(=O)NC(CC(=O)N2CCC3(CC2)OCCO3)c2ccco2)cc1 (stereo not drawn)	0.4	0.4	2	2.8%	10%	5.6%	8
Cc1c(CC(=O)N2C[C@H]3C[C@@H](C2)c2cccc(=O)n2C3)c(=O)oc2cc(O)c(Cl)cc12	x	-3.7	x	-0.7%	1%	4.3%	7
Cc1ccc(OP2(=O)Nc3cc(C)c(C)cc3S2)cc1 (stereo not drawn)	-0.2	x	2	1.6%	x	x	x
Cc1ccc2cccc(OC(=O)N3CCCC3)c2n1	-0.7	-0.1	3	1.4%	15%	-12%	-11
CCCCn1c(=O)c(C(=O)Nc2ccsc2C(=O)OC)c(O)c2ccccc21	1.0	x	-1	4.4%	8%	0.6%	2
CCCN1CCC[C@@H]2Cc3[nH]ncc3C[C@H]21	0.7	u	18	-0.5%	-2%&27%	-0.8%	x
O=C1NC(=O)C(=Cc2ccccc2OCCOc2ccc([N+](=O)[O-])cc2)C(=O)N1	0.7	-1.3	6	3.9%	50µM*	x	-14

Results in TRPML1 inh and PINK1 expr mod (three entries from above):
compound,TRPML1 inh,PINK1 expr mod
CCCNC(=O)c1cnn2c(C)c(Cc3c(C)cc(C)cc3C)c(C)nc12,33,0.4%
CCN1C(=O)CC(c2cccnc2)=Nc2ccccc21,-15,0.9%
C[C@]12CCC(=O)C=C1C=CC1C2CC[C@@]2(C)C1CC[C@@H]2O (stereo partly drawn),4,-0.2%

More compounds:
SMILES	TRPML1 agonist	Menin MLL FP FL	TRPML1 inh	PINK1 expr mod	Sfp PPTase inh	ClpP mod	TRPV1 PAM
Cc1ccc(C2CC3CCC(C2)N3Cc2ccccc2F)cc1 (stereo not drawn)	0.6	0.5	1	2.7%	-5%	-0.5%	5
COC(=O)C1=C(c2ccc(F)cc2OCc2ccccc2)C[C@@H]2CC[C@H]1N2C	1.7	x	29	1.3%	x	-0.1%	12
CC(=NCCC1=CCCCC1)c1c(O)[nH]c(=O)[nH]c1=O	0.7	-1.5	-6	-2.4%	13%	-0.9%	12
CCC(C)N1C(=O)NC(=O)C2(Cc3cc(C)ccc3N(C)C2)C1=O (stereo not drawn)	0.1	0.0	4	-0.4%	-11%	-3.1%	-5
COc1ccc(CN2CCN(Cc3ccccc3F)CC2)cc1	-1.2	-8.5	2	0.0%	79µM*	1.9%	8
Cc1nn(C(C)(C)C)c(C)c1/C=N/OC(=O)Nc1ccc(Cl)cc1	1.5	1.9	-2	u	-29%	x	-25

This is a subset, so the mix of outcomes need not match the whole.
